Beta2AR agonist = agonists of human beta-2 adrenergic receptor inducing internalization; P07550; Am2.2-beta2AR cells, FAP receptor internalization, flow cytometry; reference of the scale not given here; response, % (test concentration not listed); actives 0.43% (n = 340,000); AID 504454;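 active means response above a set limit, near 3 SD of response in nonfluorescent compounds, cut at about 42% in these data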;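 further: stock transfer was 100 nL into about 11 µL; a reference agonist was the positive control; negative values mostly stem from fluorescent compounds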
Target sequence (P07550 whole entry, looked up): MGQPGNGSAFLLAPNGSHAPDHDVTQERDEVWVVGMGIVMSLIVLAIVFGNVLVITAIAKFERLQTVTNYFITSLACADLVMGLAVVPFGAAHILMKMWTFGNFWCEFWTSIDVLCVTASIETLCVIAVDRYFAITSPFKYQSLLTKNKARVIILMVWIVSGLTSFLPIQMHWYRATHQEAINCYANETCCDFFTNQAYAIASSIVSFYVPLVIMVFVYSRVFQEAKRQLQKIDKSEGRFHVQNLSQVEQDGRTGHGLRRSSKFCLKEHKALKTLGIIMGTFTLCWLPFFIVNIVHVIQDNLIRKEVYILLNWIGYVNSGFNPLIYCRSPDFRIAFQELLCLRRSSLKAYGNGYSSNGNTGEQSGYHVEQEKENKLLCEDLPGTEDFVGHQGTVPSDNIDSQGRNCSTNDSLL
ALR inh = inhibitors of human sulfhydryl oxidase ALR; inhibition, % (no concentration beside the values); P55789; AID 485317; purified ALR, DTT oxidation, H2O2 HRP-luminol luminescence; actives 3.8% (n = 290,000);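 active means mean and each replicate at 75% or more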;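 further: stock transfer was 7.5 nL into about 7.5 µL; 0% = neutral wells and 100% = wells with inactivated enzyme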
Target sequence (P55789 whole entry, looked up): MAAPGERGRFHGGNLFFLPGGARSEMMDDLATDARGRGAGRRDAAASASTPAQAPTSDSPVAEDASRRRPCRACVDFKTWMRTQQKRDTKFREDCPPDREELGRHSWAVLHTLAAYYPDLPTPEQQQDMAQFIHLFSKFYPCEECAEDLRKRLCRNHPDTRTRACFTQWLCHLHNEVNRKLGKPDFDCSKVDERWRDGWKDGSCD
rRNA inh HTS = inhibitors of bacterial rRNA selective over humanized ribosomes | E. coli WT GFP vs humanized-ribosome RFP mutants, fluorescence, 24 h; hits give low values; DMSO median 0, no signal -100 | GFP signal change (wild-type ribosome), % (test concentration not listed) | actives 1.6% (n = 350,000);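 active means significant combined selectivity score with lowered wild-type GFP, culture density cut under 30%, mutant RFP and density less affected; inactive means any of these conditions unmet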; further: one replicate is shown; some compounds called inactive have numbers as strong as hits
UCH37 DUB inh = blocks the human deubiquitinase UCH37; Q9Y5K5; AID 588478; purified proteasome/UCH37, Ub-AMC cleavage fluorescence; inhibition, % (concentration not given with the values); actives 0.33% (n = 330,000);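 active means mean of two replicates above 20%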;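 further: 0% = compound-free wells with enzyme and 100% = wells lacking proteasome; stock transfer was 100 nL into about 20 µL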
Target sequence (Q9Y5K5 whole entry, looked up): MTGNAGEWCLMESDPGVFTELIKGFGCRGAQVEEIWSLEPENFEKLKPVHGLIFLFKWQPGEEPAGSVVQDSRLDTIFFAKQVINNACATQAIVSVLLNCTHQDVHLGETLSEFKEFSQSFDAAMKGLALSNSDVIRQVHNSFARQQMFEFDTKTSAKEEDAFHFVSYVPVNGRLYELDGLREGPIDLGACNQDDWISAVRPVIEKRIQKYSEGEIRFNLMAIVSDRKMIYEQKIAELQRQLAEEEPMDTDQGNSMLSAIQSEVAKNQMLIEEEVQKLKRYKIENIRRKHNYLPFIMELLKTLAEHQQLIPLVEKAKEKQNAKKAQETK
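Signal – fluorescence, ex 355 nm, em 460 nm · System – Proteasome-bound UCH37 · Input – 0.15 nM proteasome as dispensed · Timing – 30 min preincubation with enzyme, 25 min cleavage at room temperature · Read-out basis – percent inhibition of cleavage signal versus uninhibited and no-proteasome wells · Medium – Tris-HCl pH 7.4 with ATP-MgCl2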
HNF4A DNA FP = change in binding of human HNF4 alpha to DNA; actives 0.3% (n = 360,000); P41235; activity change, % at 10 µM; AID 1224865; HNF4a-FITC DNA binding, fluorescence polarization, 1 h; in the data active means activity change above about 30%, passing the limit was not always enough;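 further: controls were the assay level and a saturating level of protein; the project sought stronger binding though the title names inhibitors; some compounds called inactive have numbers as strong as hits; positive values seem to mean higher polarization but the record does not say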
FGF22 binding = binders of recombinant human FGF22 by thermal shift; Q9HCT0; SYPRO orange fluorescence; percent of sucrose octasulfate shift, DMSO zero; calls only at 9.99 µM; actives 1.5% (n = 340,000);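 active means melting point raised past a set limit in the mean and every replicate; three in four hits are not shown here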
Ecoli growth = E. coli growth inhibition | Escherichia coli growth, OD600, 23 h; hits give low values | OD600 absorbance (test concentration not listed) | actives 0.21% (n = 330,000);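 active means OD600 absorbance below the run mean of sample wells minus 3.6 SD, in any replicate, cut at about 0.56 in these data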;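 further: stock transfer was 300 nL into about 60 µL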
rRNA inh HTS OD600 = second read-out of rRNA inh HTS, no call of its own (marks repeat the call); OD600 change, %; measured here: OD600 growth;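 optical density of the mix in the first replicate; 0 = DMSO median and -100 = no signal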
rRNA inh HTS RFP = second read-out of rRNA inh HTS, no call of its own (marks repeat the call); RFP signal change, %; measured here: RFP humanized mutant strains;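 first replicate; 0 = DMSO median and -100 = no signal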
Active calls of the source: *; i = inactive; nt = no result given; & = joins results of further samples. Only part of the results is shown. The share of hits here may be higher or lower than overall.

SMILES	Beta2AR agonist	ALR inh	rRNA inh HTS	rRNA inh HTS OD600	rRNA inh HTS RFP	UCH37 DUB inh	HNF4A DNA FP	FGF22 binding	Ecoli growth
Cc1ccc(NC(=O)c2ccc(Cl)nc2)cc1S(=O)(=O)N1CCOCC1	4	-4	-13	-4	8.5	0.1	1.4	i	0.66
CCCN=C1N(C)C[C@@H]2[C@@H]3C(=O)N(C)C(=O)[C@@H]3[C@](CC)(C(=O)OC)N12	-6	nt	8	15	-2.8	-2.6	-0.9	nt	0.71
Cc1csc2c(NCCCN3CCOCC3)ncnc12	5	2	11	11	0.6	3.4	0.6	i	0.65
CCOC(=O)C(Oc1ccc2c(-c3ccccc3)cc(=O)oc2c1)c1ccccc1 (stereo unspecified)	0	0	4	7	0.5	-0.5	3.7	i	0.65
CCC(=O)c1ccc(OCC(=O)OCC(=O)Nc2ccc3c(c2)OCCO3)cc1	-5	-3	9	1	4.5	4.1	-1.9	i	0.66
NS(=O)(=O)c1cccc(NC(=O)COC(=O)CN2C(=O)c3ccccc3C2=O)c1	-7	nt	6	-6	-2.0	-1.8	0.6	i	0.65
C[C@@H]1CCCCO[C@H](CN(C)C)[C@H](C)CN([C@@H](C)CO)C(=O)c2cc(NC(=O)Nc3ccc(C(F)(F)F)cc3)ccc2O1	nt	nt	-5&-53	-22&-78	5.8&-13	nt	3.2	i	nt
COc1ccc(S(=O)(=O)N2CCN(C(=O)C3CCC3)CC2)cc1	-8	-4	11	-4	1.8	4.1	3.7	i	0.69
CCN(CC(=O)NCc1cccs1)C(=O)c1ccc(N(C)S(=O)(=O)c2ccc(C)cc2)cc1	1	nt	-6	-17	4.4	1.6	-0.5	i	0.69
COc1ccc(S(=O)(=O)N2CCOCC2)cc1NC(=O)c1ccc(OCC(C)C)c(OC)c1	0	nt	3	1	-0.3	2.8	1.4	i	0.66
CCOC(=O)c1nn(-c2ccc(F)cc2)c(=O)c2c(N)scc12	-1	-30	9	7	-2.4	3.5	2.3	i	0.64
[O-][N+]1=C(c2cccs2)CN(O)C1	-12	37	nt	nt	nt	5.7	2.3	nt	0.69
COc1cc(C(=O)NCCNc2nc3ccc(C)cc3cc2C#N)cc(OC)c1OC	3	54	8	8	-0.6	-132	1.4	i	0.68
CN(C)Cc1csc(NC(=O)Nc2cccc(Cl)c2)n1	nt	nt	1	2	-2.4	nt	4.0	i	nt
C/C(=N\NC(=O)c1ccc(-c2ccccc2)cc1)c1ccco1	-2	nt	0	-2	-2.2	nt	2.6	i	nt
CC(C)c1ccccc1-n1c(SCC(=O)c2ccc3c(c2)NC(=O)CO3)nc2ccccc2c1=O	14	2	nt	nt	nt	0.0	3.7	i	0.74
CCCCc1c(-c2ccccc2OC)ncn1Cc1cccc(-c2ccccc2)c1	nt	nt	-14	-21	17	nt	-3.0	i	nt
O=C(NCc1ccccc1)N1CCC(n2cnc3cc(F)ccc32)CC1	0	nt	nt	nt	nt	1.2	-1.5	nt	0.7
Cc1cc(=O)oc2c3c(cc(OCC(=O)NCc4cccnc4)c12)OC(C)(C)CC3	-11	-7	nt	nt	nt	i	2.1	i	0.73
Cc1cc(C)cc(Nc2nc3c([nH]2)c(=O)n(C)c(=O)n3C)c1	-5	8	nt	nt	nt	0.3	2.3	i	0.69
COc1cc(OC)cc(C(=O)N[C@H](C(=O)OCn2nnc3ccccc3c2=O)C(C)C)c1	-2	nt	-13	-3	0.0	2.4	-0.1	i	0.72
CCCCC(CC)CNC(=O)c1[nH]c(C)c(C(C)=O)c1C (stereo unspecified)	-3	nt	0	-38	-3.8	1.2	-1.3	i	0.75
CC(C)N(Cc1nccn1C)C(=O)C1CCC(=O)N(CCc2ccccc2)C1 (stereo unspecified)	nt	nt	12	12	2.6	nt	-0.2	i	nt
CCCCOc1ccc(C(NC(=O)OCC)NC(=O)OCC)cc1	-5	-1	nt	nt	nt	0.2	-0.2	nt	0.65
Cc1c(CCOC(=O)c2ccc(Cl)cc2Cl)sc[n+]1CC(=O)c1ccccc1	9	nt	-62	-73	-10	nt	0.0	i	nt
SMILES	Beta2AR agonist	ALR inh	rRNA inh HTS	rRNA inh HTS OD600	rRNA inh HTS RFP	UCH37 DUB inh	HNF4A DNA FP	FGF22 binding	Ecoli growth
COc1ccc(-c2cc(C(F)(F)F)nc(SCC(=O)NCc3cccs3)n2)cc1	-19	-2	nt	nt	nt	-43	4.2	nt	0.7
CC(=O)NN1C(=O)c2ccccc2NC1c1ccccc1 (stereo unspecified)	-4	nt	8	4	-9.7	-431	-2.1	i	0.67
Cc1ccnc(NC(=S)NC(=O)/C=C/c2ccc(Cl)cc2)c1	-6	-14	nt	nt	nt	nt	-2.7	nt	nt
O=C(COc1ccc2c(c1)OCO2)Nc1nnc(Cc2ccccc2)s1	0	-6	11	20	-0.9	2.3	1.6	i	0.71
CC(C)CCCCCCNC(=S)Nc1ccc(S(=O)(=O)N2CCOCC2)cc1	-2	-2	-6	-1	-4.4	-0.1	-1.6	i	0.67
O=C(O)[C@H](Cc1ccccc1)NC(=O)N1CCN(c2cccc(C(F)(F)F)c2)CC1	2	-4	-5	-6	-1.2	1.1	1.8	i	0.68
O=C(NC1CCCN(Cc2ccc(Cl)cc2)C1)C1CCC1 (stereo unspecified)	-12	nt	11	9	-2.4	0.6	1.8	i	0.64
CCCn1c2ccccc2c2cnn(CC(=O)NCCCN3CCCC(C)C3)c(=O)c21 (stereo unspecified)	8	-3	5	6	5.7	-7.3	2.0	i	0.66
O=C(COC(=O)c1ccc[n+]([O-])c1)Nc1ccc([N+](=O)[O-])cc1Cl	5	-5	nt	nt	nt	4.2	0.9	i	0.7
CCN(C[C@H]1N[C@@](C)(C(=O)OC)[C@H]2C(=O)N(Cc3ccccc3)C(=O)[C@@H]12)S(=O)(=O)c1ccc(OC)cc1	-5	nt	-4	-7	3.4	2.9	-1.1	i	0.68
Cc1nn(-c2ccccc2)c(Cl)c1C(=O)OCC(=O)NCCc1ccccc1	5	-12	-36	-38	-7.6	nt	0.8	i	nt
O=C(Nc1ccccc1-c1ccccc1)c1cccc(C(F)(F)F)c1	-8	20	nt	nt	nt	2.4	-1.9	nt	0.66
Cc1ncsc1CCOC(=O)c1cccnc1	-5	-7	5	-1	-7.4	4.1	3.5	i	0.7
COc1cccc(-n2nc(C(=O)N3CC(C)CC(C)C3)c3ccccc3c2=O)c1 (stereo unspecified)	-3	38	nt	nt	nt	3.2	-1.9	nt	0.68
O=C(NCc1ccc(F)c(F)c1)C1CCC(=O)N(CC2CCCCC2)C1 (stereo unspecified)	-3	-18	-2	9	-5.1	-0.9	0.4	i	0.66
COc1ccc(C2=C(Nc3ccc(C)cc3)c3ccccc3C2=O)cc1	2	-5	10	0	-0.4	7.2	-2.4	i	0.68
CCOC(=O)c1c(C(=O)OCC)c(C)n(N2C(=O)CSC2=S)c1C	7	-1	nt	nt	nt	6.2	16	nt	nt
CCOC(=O)c1cc2c(C)n(-c3ccc(C)cc3)c(C)c2ccc1=O	11	44	nt	nt	nt	6.0	2.6	nt	0.71
CN(CC(=O)Nc1ccccc1C(=O)Nc1ccccc1)C1CCCCC1	23	-7	7	1	0.2	3.8	3.2	i	0.71
C[C@H](NS(=O)(=O)c1ccc(Cl)cc1)C(=O)OCC(=O)c1ccc[nH]1	17	-9	6	-3	-0.7	1.9	-0.5	i	0.68
COCC(=O)N1C[C@H]2CON(C)[C@H]2C[C@H]1c1cccc(-c2ccccc2OC)c1	nt	nt	19	10	3.2	nt	2.9	i	nt
Cc1ccc2nc(C3CCCCC3)c(Cc3ccccc3)n2c1	nt	nt	-65	-77	-18	nt	2.2	i	nt
O=C(N/C=C/c1ccc(Cl)cc1)NCc1ccc(Cl)cc1	4	-3	nt	nt	nt	1.0	2.5	nt	0.69
COc1ccc(-c2nc(S(=O)(=O)c3ccc(C)cc3)c(N3CCCC3)o2)cc1	-1	4	nt	nt	nt	1.7	1.1	nt	0.73
Cc1c(Br)c(C(=O)NCc2cc3cc(Cl)ccc3[nH]2)nn1C	-1	-2	-17	-14	-12	3.9	2.0	i	0.69

Reformatted: results already given.
SMILES,Beta2AR agonist,ALR inh,rRNA inh HTS,rRNA inh HTS OD600,rRNA inh HTS RFP,UCH37 DUB inh,HNF4A DNA FP,FGF22 binding,Ecoli growth
COc1cc(C(=O)NCCNc2nc3ccc(C)cc3cc2C#N)cc(OC)c1OC,3,54,8,8,-0.6,-132,1.4,i,0.68
CN(C)Cc1csc(NC(=O)Nc2cccc(Cl)c2)n1,nt,nt,1,2,-2.4,nt,4.0,i,nt
C/C(=N\NC(=O)c1ccc(-c2ccccc2)cc1)c1ccco1,-2,nt,0,-2,-2.2,nt,2.6,i,nt
CC(C)c1ccccc1-n1c(SCC(=O)c2ccc3c(c2)NC(=O)CO3)nc2ccccc2c1=O,14,2,nt,nt,nt,0.0,3.7,i,0.74
CCCCc1c(-c2ccccc2OC)ncn1Cc1cccc(-c2ccccc2)c1,nt,nt,-14,-21,17,nt,-3.0,i,nt
O=C(NCc1ccccc1)N1CCC(n2cnc3cc(F)ccc32)CC1,0,nt,nt,nt,nt,1.2,-1.5,nt,0.7

Continued:
SMILES	Beta2AR agonist	ALR inh	rRNA inh HTS	rRNA inh HTS OD600	rRNA inh HTS RFP	UCH37 DUB inh	HNF4A DNA FP	FGF22 binding	Ecoli growth
CCC1(c2ccc(F)cc2)NC(=O)N(CC(=O)Nc2ccc(C)c(S(=O)(=O)N3CCOCC3)c2)C1=O (stereo unspecified)	1	-1	-5	-22	-0.6	2.9	-0.6	i	0.72
O=C(NNC(=S)NC1CCCCC1)c1ccc(Cl)s1	2	15	-24	-22	-4.1	3.0	0.2	i	0.62
COc1cccc(C(=O)N(Cc2cc3cc(C)ccc3[nH]c2=O)CC2CCCO2)c1 (stereo unspecified)	7	-4	nt	nt	nt	-8.9	4.6	nt	0.67
O=C(O)Cn1ccnc1	4	8	nt	nt	nt	-1.0	-2.6	nt	0.73
Cc1ccc2cc(S(=O)(=O)NCCCC(=O)O)ccc2c1	-3	-12	nt	nt	nt	-4.0	0.2	nt	0.76
Cc1ccc(NC(=O)CCCC(=O)OC(C)C(=O)c2ccccc2)cc1 (stereo unspecified)	0	nt	-15	-15	0.6	2.7	-1.7	i	0.69
Cc1ccc2occ(/C=N/NC(=O)c3ccc(Cl)cc3)c(=O)c2c1	7	-1	-8	-6	-2.3	nt	15	i	nt
CN1CCN(S(=O)(=O)c2cccc(C(=O)Nc3cccc(S(N)(=O)=O)c3)c2)CC1	7	-6	5	12	-2.9	-0.2	0.5	i	0.67
Cc1ccc(C(C(=O)NC(C)(C)C)N(Cc2ccc3c(c2)OCO3)C(=O)c2ccc(CN3CCOCC3)o2)o1 (stereo unspecified)	4	-5	12	-10	4.5	-0.3	2.8	i	0.65
Cc1ccnc(SCC(=O)N2CCN(c3ccccc3)CC2)n1	3	98*	nt	nt	nt	2.1	-3.0	nt	0.68
Cc1ccc(C(=O)COC(=O)CCc2ccc(S(=O)(=O)N3CCCCC3)cc2)cc1	5	1	nt	nt	nt	-2.1	1.1	nt	0.71
O=C(C[C@@H]1C[C@@H]2c3cc(NC(=O)C4CCC4)ccc3O[C@@H]2[C@@H](CO)O1)NCc1ccc(Cl)cc1	nt	nt	-5&0	-4&3	-0.9&1.5	nt	-7.8	i	nt
Cc1cccc(CNS(=O)(=O)c2csc(C(N)=O)c2)c1	-1	-2	10	6	-1.5	0.2	-0.9	i	0.68
